UCH37 DUB inh: human UCH37 deubiquitinating enzyme inhibition. 330,000 tested, 0.33% active. purified proteasome/UCH37, Ub-AMC cleavage fluorescence. AID 588478. inhibition, % (test concentration not listed);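 active means mean of two replicates above 20%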;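 further: 0% = compound-free wells with enzyme and 100% = wells lacking proteasome; stock transfer was 100 nL into about 20 µL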
Target sequence (Q9Y5K5 whole entry, looked up): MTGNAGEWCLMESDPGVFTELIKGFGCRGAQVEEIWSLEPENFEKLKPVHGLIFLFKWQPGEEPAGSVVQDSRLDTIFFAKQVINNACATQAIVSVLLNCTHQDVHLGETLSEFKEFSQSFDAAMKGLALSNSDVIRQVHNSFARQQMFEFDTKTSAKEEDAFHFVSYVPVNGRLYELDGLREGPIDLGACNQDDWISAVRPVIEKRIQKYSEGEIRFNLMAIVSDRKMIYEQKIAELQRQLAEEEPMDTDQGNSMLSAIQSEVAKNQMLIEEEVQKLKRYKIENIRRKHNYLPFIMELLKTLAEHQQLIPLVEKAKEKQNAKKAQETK
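assay system = human UCH37 enzyme supplied as purified proteasome complex | amount = proteasome at 0.15 nM in the dispensed enzyme solution | schedule = 30 min compound-proteasome preincubation then 25 min substrate reaction, room temperature | measured by = fluorescence, ex 355 nm, em 460 nm | benchmarks = no-proteasome wells (full inhibition) and compound-free wells (no inhibition)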
Beta apoptosis: blocks beta cell apoptosis; INS-1E cytokine-induced death, ATP luminescence, 48 h; percent of positive-control rescue, neutral wells zero; protection from apoptosis, % (concentration not given with the values); 300,000 tested, 0.8% active; AID 435005;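 active means all replicates at 75% or more, or half of them and the mean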;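 further: 0% = cytokine-treated negative control wells and 100% = positive control rescue; higher means more ATP so stronger rescue from cytokine killing; wells of about 40 µL received 100 nL stock; the first replicate is given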
rRNA inh HTS: inhibitors of bacterial rRNA selective over humanized ribosomes. E. coli WT GFP vs humanized-ribosome RFP mutants, fluorescence, 24 h; stronger effect = lower value; DMSO median 0, no signal -100. GFP signal change (wild-type ribosome), % (concentration not given with the values). 350,000 tested, 1.6% active;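 active means significant combined selectivity score with lowered wild-type GFP, culture density cut under 30%, mutant RFP and density less affected; inactive means any of these conditions unmet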; further: one replicate is shown; some compounds called inactive have numbers as strong as hits
FGF22 binding: shifts melting point of recombinant human FGF22. Q9HCT0. AID 651658. 340,000 tested, 1.5% active. calls only at 9.99 µM. recombinant FGF22 thermal shift, SYPRO orange fluorescence; percent of sucrose octasulfate shift, DMSO zero;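 active means melting point raised past a set limit in the mean and every replicate; three in four hits are not shown here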
Target sequence (Q9HCT0 whole entry, looked up): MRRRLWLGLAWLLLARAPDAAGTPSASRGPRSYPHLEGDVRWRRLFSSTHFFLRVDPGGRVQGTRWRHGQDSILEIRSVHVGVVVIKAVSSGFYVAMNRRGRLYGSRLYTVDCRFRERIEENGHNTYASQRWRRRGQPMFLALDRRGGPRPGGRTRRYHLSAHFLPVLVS
AF4-AF9 inh: MLL-AF4/AF9 protein interaction inhibition; P42568; 350,000 tested, 0.47% active; AID 651704; AlphaScreen, biotin-AF4 peptide binding to FLAG-AF9; inhibition, % at 10 µM;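 active means every replicate reaching a set inhibition limit, whatever the replicate mean, cut at about 25% in these data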;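 further: 0% = plate neutral control median and 100% = total signal loss; the record names both 10 and 1 µM as test concentration; the first replicate is given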
Target sequence (P42568 whole entry, looked up): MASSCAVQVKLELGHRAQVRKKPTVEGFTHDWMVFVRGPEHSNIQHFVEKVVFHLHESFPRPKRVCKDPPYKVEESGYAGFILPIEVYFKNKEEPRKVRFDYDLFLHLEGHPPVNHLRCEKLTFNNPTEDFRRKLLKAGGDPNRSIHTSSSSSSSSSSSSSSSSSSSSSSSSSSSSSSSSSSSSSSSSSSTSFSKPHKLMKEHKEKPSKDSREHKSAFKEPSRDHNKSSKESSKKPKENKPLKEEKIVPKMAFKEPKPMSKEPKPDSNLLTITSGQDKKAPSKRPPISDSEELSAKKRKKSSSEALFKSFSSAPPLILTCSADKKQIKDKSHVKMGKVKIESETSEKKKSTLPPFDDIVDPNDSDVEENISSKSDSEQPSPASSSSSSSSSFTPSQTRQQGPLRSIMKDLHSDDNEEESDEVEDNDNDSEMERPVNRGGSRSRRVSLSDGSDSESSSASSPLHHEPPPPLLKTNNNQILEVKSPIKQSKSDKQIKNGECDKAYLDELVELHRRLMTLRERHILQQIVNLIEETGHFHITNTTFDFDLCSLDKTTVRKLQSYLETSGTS
Ecoli growth: blocks Escherichia coli growth; OD600, 23 h; stronger effect = lower value; OD600 absorbance (no concentration beside the values); 330,000 tested, 0.21% active; AID 1053175;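 active means OD600 absorbance below the run mean of sample wells minus 3.6 SD, in any replicate, cut at about 0.56 in these data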;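 further: stock transfer was 300 nL into about 60 µL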
T cruzi repl: T. cruzi replication inhibition; T. cruzi beta-gal in NIH3T3, luminescence, 90 h; inhibition, % (concentration not given with the values); 300,000 tested, 1.4% active;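 active means mean inhibition across valid replicates above about 55%, limit read from the data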;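 further: signal also drops with host cell toxicity which is not excluded here; 0% = plate median of DMSO wells and 100% = zero luminescence signal; higher percent means less beta-gal luminescence so fewer parasites; stock transfer was 50 nL into about 50 µL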
A1 inh: inhibitors of the anti-apoptotic protein A1, read as caspase activation; caspase activation, % (test concentration not listed); AID 2462; 330,000 tested, 0.066% active; MEF A1-2A-BIM cells, Caspase-Glo 3/7 luminescence, 3 h; percent of clofoctol response, vehicle zero;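 active means over half of replicate activation scores above 10%, or exactly half above 10 with the replicate mean above 10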;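 further: wells of about 30 µL received 50 nL stock; many hits fall short of the cut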
rRNA inh HTS OD600: further read-out of rRNA inh HTS, marked with its call; OD600 change, %; measured here: OD600 growth;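 optical density of the mix in the first replicate; 0 = DMSO median and -100 = no signal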
rRNA inh HTS RFP: second read-out of rRNA inh HTS, no call of its own (marks repeat the call); RFP signal change, %; measured here: RFP humanized mutant strains;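 first replicate; 0 = DMSO median and -100 = no signal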
The depositor's hits bear a star. These rows are one share of the data (hit frequency here may not be typical).

`CC1CCN(c2cc(=O)n(C3CCCCC3)c(=O)[nH]2)CC1` gave UCH37 DUB inh 3.5, Beta apoptosis -0.5, rRNA inh HTS 8.5, FGF22 binding inactive, AF4-AF9 inh 13.6, Ecoli growth 0.721, T cruzi repl -15.2, A1 inh 1.3, rRNA inh HTS OD600 11.9 and rRNA inh HTS RFP 4.3.
For Cc1nn(C)c(C)c1CNC(=O)Nc1cccc(Cl)c1C the results were UCH37 DUB inh 1.2, Beta apoptosis -4.0, rRNA inh HTS 15.1, AF4-AF9 inh -4.0, Ecoli growth 0.715, T cruzi repl -3.5, A1 inh 0.4, rRNA inh HTS OD600 14.5 and rRNA inh HTS RFP 0.7.
`CCOc1ccc(NS(=O)(=O)c2cccc(C(=O)N(C)Cc3ccco3)c2)cc1` gave UCH37 DUB inh -1.7, Beta apoptosis -1.8, FGF22 binding inactive, AF4-AF9 inh 1.7, Ecoli growth 0.683 and A1 inh 1.0.
`NC(=O)C1CCN(C(=O)COc2ccc3ccccc3c2)CC1` gave UCH37 DUB inh 1.1, Beta apoptosis -11.4, Ecoli growth 0.66, T cruzi repl 2.5 and A1 inh -0.1.
For CCn1c(=O)c2c(nc(SCC(=O)Nc3ccccc3)n2C)n(C)c1=O the results were UCH37 DUB inh -1.1, Beta apoptosis -2.6, rRNA inh HTS 2.7, FGF22 binding inactive, AF4-AF9 inh -1.9, Ecoli growth 0.682, T cruzi repl -7.5, A1 inh 0.5, rRNA inh HTS OD600 0.7 and rRNA inh HTS RFP -2.3.
Screening O=c1c2ccccc2nc2c3ccccc3ncn12 returned UCH37 DUB inh -31.8, Beta apoptosis 4.2, rRNA inh HTS 8.1, FGF22 binding inactive, AF4-AF9 inh 1.9, Ecoli growth 0.696, T cruzi repl -17.0, A1 inh -0.1, rRNA inh HTS OD600 3.9 and rRNA inh HTS RFP -0.6.
Screening CC(C)(C)NCC(O)CON=C1c2ccccc2-c2ccccc21 (stereo not given) returned UCH37 DUB inh 2.2, Beta apoptosis 20.3, rRNA inh HTS -29.3, FGF22 binding inactive, AF4-AF9 inh 14.3, Ecoli growth 0.7, T cruzi repl 24.0, A1 inh 0.0, rRNA inh HTS OD600 -37.8 and rRNA inh HTS RFP -1.2.
Screening O=C(CN1CCN(S(=O)(=O)c2ccccc2C(F)(F)F)CC1)NCc1cccs1 returned UCH37 DUB inh -0.3, Beta apoptosis -3.7, rRNA inh HTS 0.0, FGF22 binding inactive, AF4-AF9 inh 6.1, Ecoli growth 0.63, T cruzi repl 16.1, A1 inh 0.3, rRNA inh HTS OD600 -0.1 and rRNA inh HTS RFP -1.6.
COc1ccc(-n2c(C)c(C(=O)O)c3cc(OC)c4ccccc4c32)cc1 was read as UCH37 DUB inh -1.8, Beta apoptosis -3.9, rRNA inh HTS -17.1, FGF22 binding inactive, AF4-AF9 inh -5.0, Ecoli growth 0.713, T cruzi repl -3.6, A1 inh 0.1, rRNA inh HTS OD600 2.3 and rRNA inh HTS RFP 9.7.
Screening O=C1C(Cl)=C(N2CCCC2)C(=O)N1c1ccccc1F returned UCH37 DUB inh 5.7, Beta apoptosis 0.9, rRNA inh HTS -0.8, FGF22 binding inactive, AF4-AF9 inh 1.0, Ecoli growth 0.671, T cruzi repl 1.1, A1 inh -0.4, rRNA inh HTS OD600 0.0 and rRNA inh HTS RFP -1.4.
For O=C(Nc1cccc(C(F)(F)F)c1)/C(=C\c1ccco1)NC(=O)c1cccs1 the results were UCH37 DUB inh 4.4, Beta apoptosis -16.8, rRNA inh HTS 24.1, FGF22 binding inactive, AF4-AF9 inh 1.8, Ecoli growth 0.683, T cruzi repl -1.1, A1 inh -0.2, rRNA inh HTS OD600 8.6 and rRNA inh HTS RFP 4.2.
Screening CC(=O)Nc1ccc(CN2CCc3c([nH]c4ccccc34)C2C(C)(C)C)cc1 (stereo not given) returned UCH37 DUB inh -15.7, rRNA inh HTS 5.0, FGF22 binding inactive, AF4-AF9 inh 8.8, Ecoli growth 0.63, T cruzi repl 12.2, A1 inh 0.4, rRNA inh HTS OD600 3.8 and rRNA inh HTS RFP 3.3.

The final 2 records of the part before come first, to join the parts.
For O=C(Nc1cccc(C(F)(F)F)c1)/C(=C\c1ccco1)NC(=O)c1cccs1 the results were UCH37 DUB inh 4.4, Beta apoptosis -16.8, rRNA inh HTS 24.1, FGF22 binding inactive, AF4-AF9 inh 1.8, Ecoli growth 0.683, T cruzi repl -1.1, A1 inh -0.2, rRNA inh HTS OD600 8.6 and rRNA inh HTS RFP 4.2.
Screening CC(=O)Nc1ccc(CN2CCc3c([nH]c4ccccc34)C2C(C)(C)C)cc1 (stereo not given) returned UCH37 DUB inh -15.7, rRNA inh HTS 5.0, FGF22 binding inactive, AF4-AF9 inh 8.8, Ecoli growth 0.63, T cruzi repl 12.2, A1 inh 0.4, rRNA inh HTS OD600 3.8 and rRNA inh HTS RFP 3.3.
For O=C(NCCN1CCOCC1)C1CCN(S(=O)(=O)N2CCCCC2)CC1 the results were UCH37 DUB inh 0.0, Beta apoptosis 2.2, Ecoli growth 0.652, T cruzi repl -1.1 and A1 inh 1.3.
`Cc1ccc(OCC(=O)Nc2ccccc2F)cc1C` gave UCH37 DUB inh 2.0, Beta apoptosis 0.6, rRNA inh HTS -0.6, FGF22 binding inactive, AF4-AF9 inh -9.4, Ecoli growth 0.683, T cruzi repl -4.2, A1 inh -1.8, rRNA inh HTS OD600 10.0 and rRNA inh HTS RFP -0.4.
Screening CN(c1ccccc1)S(=O)(=O)c1ccc(NC(=S)Nc2ccccc2)cc1 returned UCH37 DUB inh 4.3, Beta apoptosis -7.3, Ecoli growth 0.669, T cruzi repl -4.9 and A1 inh 0.3.
Screening COCCNC(=O)/C(C#N)=C/c1ccc(OCc2ccccc2)cc1 returned UCH37 DUB inh 3.0, Beta apoptosis -1.1, rRNA inh HTS -14.0, FGF22 binding inactive, AF4-AF9 inh 0.2, Ecoli growth 0.676, T cruzi repl -8.2, A1 inh 1.3, rRNA inh HTS OD600 -8.6 and rRNA inh HTS RFP 0.9.
Screening CCNc1ccc(Br)cc(C(=O)/C=C/c2ccc(Cl)cc2Cl)c1=O returned UCH37 DUB inh 8.0, Beta apoptosis -2.8, Ecoli growth 0.676, T cruzi repl -20.5 and A1 inh -0.4.
Screening CCOc1ccc(CCNC(=O)CSc2cc(=O)n(C)c3ccc(Cl)cc23)cc1OCC returned UCH37 DUB inh -0.2, Beta apoptosis -13.9, rRNA inh HTS -0.7, FGF22 binding inactive, AF4-AF9 inh 0.9, Ecoli growth 0.623, T cruzi repl 6.0, A1 inh 0.1, rRNA inh HTS OD600 -2.9 and rRNA inh HTS RFP -3.9.
Screening C=CCOc1ccc(Br)cc1CNCCO returned UCH37 DUB inh 3.6, Beta apoptosis -0.6, rRNA inh HTS -2.2, FGF22 binding inactive, AF4-AF9 inh -2.4, Ecoli growth 0.705, T cruzi repl 2.6, A1 inh 0.8, rRNA inh HTS OD600 -5.0 and rRNA inh HTS RFP -0.9.
Screening CCOC(=O)c1ccc(NS(=O)(=O)c2ccc3oc(=O)[nH]c3c2)cc1 returned UCH37 DUB inh 3.5, Beta apoptosis -1.3, rRNA inh HTS -2.6, FGF22 binding inactive, AF4-AF9 inh -0.4, Ecoli growth 0.701, T cruzi repl -4.4, A1 inh 0.2, rRNA inh HTS OD600 -15.6 and rRNA inh HTS RFP 4.1.
`O=C(NCc1ccccn1)c1ccc(Cl)c(S(=O)(=O)NCc2ccccc2)c1` gave UCH37 DUB inh -0.7, Beta apoptosis -4.2, FGF22 binding inactive, AF4-AF9 inh -6.4, Ecoli growth 0.703 and A1 inh 0.7.
`C#CCOCCOCCOCCNc1nc(N2CCN(C(=O)Cn3cc(CC(C)O)nn3)CC2)nc(N2CCN(C(=O)[C@H](CCCCN)n3cc(CCC(=O)O)nn3)CC2)n1` (stereo not given in full) gave UCH37 DUB inh -0.3, Beta apoptosis -7.6, rRNA inh HTS 11.0, FGF22 binding inactive, AF4-AF9 inh 1.0, T cruzi repl -13.4, A1 inh -0.6, rRNA inh HTS OD600 12.1 and rRNA inh HTS RFP 2.0.
`O=C(NCc1cn2ccsc2n1)c1cccc(C(F)(F)F)c1` gave UCH37 DUB inh -1.1, Beta apoptosis -0.9, Ecoli growth 0.699, T cruzi repl -10.6 and A1 inh 0.1.
Cc1[nH]n(-c2ccc([N+](=O)[O-])cc2)c(=O)c1C=NCCN1CCN(C(=O)c2cccc(F)c2)CC1 was read as UCH37 DUB inh 8.8, Beta apoptosis 47.6, Ecoli growth 0.622, T cruzi repl 3.6 and A1 inh -7.8.
Screening CCc1ccc2nc(-c3cccc(C)c3)nc(SCC(=O)NCC3CCCO3)c2c1 (stereo not given) returned UCH37 DUB inh 8.2, Beta apoptosis -1.4, Ecoli growth 0.684, T cruzi repl -1.8 and A1 inh 1.1.
For CCOC(=O)CSc1nnc(CSc2nc3ccccc3c(=O)[nH]2)n1-c1ccccc1 the results were UCH37 DUB inh 3.3, Beta apoptosis -1.0, Ecoli growth 0.736, T cruzi repl -5.8 and A1 inh 0.1.
Screening CCS(=O)(=O)Nc1c(C)n(C)n(-c2ccccc2)c1=O returned UCH37 DUB inh 4.3, Beta apoptosis -4.5, Ecoli growth 0.72, T cruzi repl -9.5 and A1 inh -1.0.
`CCOC(=O)c1[nH]c(C)c(C(=O)NC2CCCCCC2)c1C` gave UCH37 DUB inh 0.8, Beta apoptosis -5.4, Ecoli growth 0.731, T cruzi repl 7.7 and A1 inh 1.6.
`Cc1ccc(N(CC(=O)Nc2ccc(S(=O)(=O)N3CCOCC3)cc2)S(C)(=O)=O)cc1C` gave UCH37 DUB inh 4.0, Beta apoptosis -1.0, Ecoli growth 0.706, T cruzi repl 9.5 and A1 inh -0.1.
Screening COc1cccc(CN(C)CC(=O)Nc2cccc(C(F)(F)F)c2)c1OC returned UCH37 DUB inh 3.0, Beta apoptosis -3.6, rRNA inh HTS 9.5, FGF22 binding inactive, AF4-AF9 inh -0.3, Ecoli growth 0.723, T cruzi repl 7.7, A1 inh 0.0, rRNA inh HTS OD600 7.0 and rRNA inh HTS RFP 1.8.
Screening Cc1noc(C)c1C(=O)NCC1COc2ccccc2O1 (stereo not given) returned UCH37 DUB inh 0.9, Beta apoptosis 4.6, rRNA inh HTS 15.0, FGF22 binding inactive, AF4-AF9 inh -2.9, Ecoli growth 0.632, A1 inh 0.1, rRNA inh HTS OD600 20.7 and rRNA inh HTS RFP 0.0.
For CN(Cc1nccn1C)C(=O)CC1C(=O)NCCN1Cc1ccccc1C(F)(F)F (stereo not given) the results were UCH37 DUB inh -1.8, Beta apoptosis -5.1, rRNA inh HTS 6.3, FGF22 binding inactive, AF4-AF9 inh -1.2, Ecoli growth 0.755, T cruzi repl -14.8, A1 inh -0.1, rRNA inh HTS OD600 -1.4 and rRNA inh HTS RFP 1.4.
COc1cc(C=O)ccc1OCC(=O)Nc1ccccc1N1CCOCC1 was read as UCH37 DUB inh 4.7, Beta apoptosis -3.4, rRNA inh HTS 5.1, FGF22 binding inactive, AF4-AF9 inh 1.2, Ecoli growth 0.695, T cruzi repl 15.4, A1 inh 0.7, rRNA inh HTS OD600 5.7 and rRNA inh HTS RFP 1.5.

Assay outcomes: PubChem, several laboratories
